Menin-MLL FL inh = menin-MLL binding inhibition, fluorescein peptide; Fluorescence polarization, fluorescein-MLL peptide displacement from menin; FP activity change, % at 61.4 µM; 290,000 tested, under 10 active; inconclusive = falling polarisation curve, or a change in total fluorescence; inactive = total fluorescence flat and polarisation flat or rising; no compound was filed as active; the % refers to the polarisation; negative = inhibition;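 note: % of control where 0% means no effect; inhibitors lower the polarisation; unlabelled MLL peptide was the positive control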
ClpP mod = qHTS Assay for Activators of ClpP; Potency, µM (series often up to 57.5 µM), inactives show top-dose activity change, negative = active; 340,000 tested, 1.9% active; ATP-dependent Clp protease proteolytic subunit (Bacillus subtilis (strain 168)), P80244; purified B. subtilis ClpP, FRET peptide cleavage, 20 min; AID 651965, 2013; active = well fitted falling curve with a large enough effect; inconclusive = small, poorly fitted or top-dose-only effect; inactive = no such curve, though single readings can be large or run the other way; note: potency is the fitted concentration of half-maximal effect; the source files actives as falling curves though it sought activators and does not explain the sign; nearly all actives have a fitted effect of over 65% in size; many hits overshoot -100%
Target sequence (P80244 whole entry, looked up): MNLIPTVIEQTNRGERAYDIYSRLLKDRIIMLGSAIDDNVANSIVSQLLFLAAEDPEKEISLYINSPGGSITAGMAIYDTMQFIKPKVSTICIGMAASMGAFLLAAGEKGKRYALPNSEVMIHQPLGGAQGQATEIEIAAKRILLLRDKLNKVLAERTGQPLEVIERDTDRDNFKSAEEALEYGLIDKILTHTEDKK
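Buffer: 100 mM Tris/HCl pH8, 100 mM KCl, 0.05% low protease BSA, 2.5% glycerol, 0.01% Tween-20. ClpP 10 microg/mL final; 20 min RT; delta FRET normalized to ADEP and DMSO controls.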
D2 PAM = human D2 receptor positive allosteric modulation; P14416; DiscoveRx D2 beta-arrestin cells, luminescence, 90 min; 100% = 57 uM dopamine signal; potentiation, % (concentration not given with the values); 360,000 tested, 0.23% active; active = potentiation of 50% or more; inconclusive = 30% to 50%; inactive = 30% or less;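 note: compound concentration not given in the record; tested on top of an EC20 dose of dopamine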
Target sequence (P14416 whole entry, looked up): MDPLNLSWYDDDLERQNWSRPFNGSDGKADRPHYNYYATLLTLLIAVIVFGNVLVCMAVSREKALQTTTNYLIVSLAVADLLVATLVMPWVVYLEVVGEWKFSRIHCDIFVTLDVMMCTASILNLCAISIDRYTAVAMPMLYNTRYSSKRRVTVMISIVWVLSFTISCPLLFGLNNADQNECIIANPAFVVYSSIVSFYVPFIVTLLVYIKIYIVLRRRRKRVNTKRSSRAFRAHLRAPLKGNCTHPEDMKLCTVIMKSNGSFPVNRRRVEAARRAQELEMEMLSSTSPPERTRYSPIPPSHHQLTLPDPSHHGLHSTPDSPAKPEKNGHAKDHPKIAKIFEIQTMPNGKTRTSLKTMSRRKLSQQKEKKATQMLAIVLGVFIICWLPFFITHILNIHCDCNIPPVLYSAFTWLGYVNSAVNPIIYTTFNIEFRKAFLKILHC
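D2 cells co-treated with compound plus 50 nM dopamine (EC20) for 90 min at 37 deg C to detect potentiation. Beta-arrestin recruitment was read as enzyme-fragment luminescence after 1 h at ambient temperature. Full response was set by 57 uM dopamine.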
gsp antag = antagonizes gsp, the McCune-Albright syndrome mutation | gsp-mutant cells, cAMP HTRF, 30 min; control for the full effect not named in the record | AID 624288 | Potency, µM (highest dose often 76.9 µM), without a hit: at the highest dose activity change, negative = inhibition, most hits filed as inhibitors | 340,000 tested, 0.4% active; active = falling curve of any shape with a large fitted effect; inconclusive = falling curve, mostly with a smaller effect; inactive = flat or rising curve; cell line not stated here;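 note: intracellular cAMP measured with PDE inhibitor Ro 20-1724 present during compound exposure; potency is the fitted concentration of half-maximal effect; % is set by controls: 0 for no effect and ±100 for the full control effect; nearly all actives have a fitted effect of over 65% in size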
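Measurement of cellular cAMP by homogeneous time-resolved fluorescence following a 30 min compound exposure at 37C. The PDE inhibitor […] was present throughout; the assay buffer was DPBS with 0.05% BSA and 0.005% Tween 20.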
Sfp PPTase inh = Sfp phosphopantetheinyl transferase inhibition | Q9F4F7 | Biochemical Sfp PPTase activity, qHTS | Potency, µM, without a hit: max response, negative = inhibition, hits mostly inhibitors | 310,000 tested, 3.5% active | AID 1490; active = well fitted inhibition curve with a large enough effect; inconclusive = small, poorly fitted or top-dose-only effect, or another doubt; inactive = no such curve, though single readings can be large or run the other way;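 note: the enzyme is Sfp with the accession as filed and its product quenches rhodamine fluorescence; potency is the fitted concentration of half-maximal effect; 0% = enzyme reaction without inhibitor and -100% = no enzyme wells; top concentration of the series not given in the record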
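With Hepes-Na pH 7.6 buffer containing 10 mM MgCl2, Sfp (15 nM) modified BHQ-2-YbbR (12.5 uM) using rhodamine-CoA (5 uM). Two reads 30 minutes apart at 525/598 nm yielded each well's rate.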
gsp ag = agonists of gsp mutant (McCune-Albright syndrome); Potency, µM (titrated, usually from 76.9 µM), for the others: at the top dose activation (cAMP increase), hits mostly activators; AID 624287; 340,000 tested, 0.13% active; gsp mutant cells, cAMP HTRF, 30 min; control for the full effect not named in the record; active = well fitted activation curve with a large enough effect; inconclusive = small, poorly fitted or top-dose-only effect, or another doubt; inactive = no such curve, though single readings can be large or run the other way; cell line not stated here;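 note: phosphodiesterase inhibitor Ro 20-1724 added with compounds to block cAMP breakdown; potency is the fitted concentration of half-maximal effect; nearly all actives have a fitted effect of over 60% in size; about a fifth of the inactives were tested at one dose only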
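Cells in DMEM/10% FBS with G418 were pretreated with compounds in DMSO plus […] (300 uM stock) for 30 min at 37C. cAMP was measured by HTRF (cAMP-d2 plus anti-cAMP antibody-K) after 30 min at room temperature.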
TRPV1 potentiator = human TRPV1 potentiation. Q8NER1. TRPV1-expressing cells, Fluo-8 calcium influx, capsaicin EC20 potentiation; host cell line not named in the record; control for the full effect not named in the record. potentiation, % at 8.33 µM. 320,000 tested, 0.02% active. AID 540277; active means potentiation above 80%; inconclusive means 30% to 80%; inactive means below 30%; note: 0% is about no effect
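Fluo-8 calcium influx in TRPV1-expressing cells, kinetic read (ex 480/em 520 nm). Compound added and read 3 min for agonist activity, followed by capsaicin at EC20 final and 2 min further read for enhancement.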
Starred values were filed as active, the others as inactive; ? = inconclusive; nt = no result given; & = joins results of further samples; [ ] = another dose, or the depositor's remark. Rows were taken by chance, and some 5.1% of all compounds hit somewhere here.

Values run as follows: Menin-MLL FL inh, gsp antag, ClpP mod, Sfp PPTase inh, D2 PAM, gsp ag, TRPV1 potentiator
CCCCN(C)Cc1cc(=O)oc2ccc3ccccc3c12
    0.0, -28%, -5.1%, -8%, 2, 11%, -20
COc1ccc(-c2csc(=NCCO)n2-c2ccccc2)cc1
    -2.3, ?, nt, -7%, -13, 2%[15.4 µM], 12
O=c1cc(O)nc[nH]1
    3.1, 17%, -0.4%, 5%, -8, -26%, 1
Cc1ccccc1OC(C)C(=O)Nc1ccc(S(=O)(=O)N2CCCC2)cc1 (stereo not given)
    1.0, 1%, 1.6%, 3%, 1, -36%[inhibitor], -8
Cc1c(C#N)c(O)n(CCO)c(=O)c1N=Nc1ccccc1
    ?, -11%, nt, 15%, 6, 9%[15.4 µM], -2
Cc1noc(C)c1CS(=O)(=O)c1ccc(Br)cc1
    1.2, 6%, -0.8%, 4%, 8, 3%, -3
Cc1ccccc1-c1nc(CN2CCC(C(=O)NCCCN3CCCC(C)C3)CC2)c(C)o1 (stereo not given)
    7.2, 9%, -2.3%, 9%, -25, ?, 4
Cn1c2ccc(F)cc2c2nc3ccccc3nc21
    ?, -9%, nt, -3%, 1, 6%, ?
NS(=O)(=O)c1ccc(CCNC(=O)COC(=O)/C=C/c2cc(Br)ccc2F)cc1
    nt, -13%, 1.5%, nt, -18, -27%[15.4 µM], nt
N#Cc1ccccc1S(=O)(=O)N1CCN(C(=O)CN(Cc2ccco2)Cc2cccs2)CC1
    nt, nt, -0.2%, nt, -18, -85%[inhibitor], nt
CCC(CCC(=O)Nc1ccn(-c2ccccc2)n1)C(=O)O (stereo not given)
    3.5, -11%, 5.4%, -7%, 11, 16%, ?
Cc1nn(C)cc1S(=O)(=O)Nc1ccc(F)c(F)c1
    0.4, -3%, 0.6%, 8%, -12, 29%, 1
CCc1cc(C(=O)COc2ccccc2F)c(O)cc1O
    2.2, -25%, 1.3%, 3%, 10, -4%, 4
O=C(O)CC12C[C@H]3C[C@@H](C1)CC(n1ncc(N4CCN(c5ccccc5)CC4)c(Cl)c1=O)(C3)C2
    18, 7%, 2.0%, -6%, -12, -6%, 25
CCOc1ccc(CCNC(=O)c2cccc(-n3cnnn3)c2)cc1OCC
    nt, -11%, -2.5%, nt, 15, -20%, -7
COc1ccc(OC(=O)c2cn(C)nc2C(F)(F)F)cc1
    2.9, 12%, 2.1%, 6%, -3, 10%, -12
COc1ccc(OCC(=O)OCC(=O)Nc2ccc3[nH]c(=O)[nH]c3c2)cc1
    nt, 11%, -4.8%, nt, -2, 1%, -12
CC1CCc2nc3ccc(S(=O)(=O)N4CCC(C(=O)N5CCCCCC5)CC4)cc3c(C(=O)O)c2C1 (stereo not given)
    -0.2, -19%, -2.6%, 13%, -7, -25%, -5
CCSc1nc2ccccc2n1Cc1nc(N)nc(N(C)C)n1
    4.0, 14%, 0.9%, 10%, -11, 14%, 4
CCCC(=O)Nc1cc2c(cc1C(=O)c1ccccc1)OCCO2
    1.4, -1%, 3.3%, 10%, -4, -12%, -16
Cc1ccc(SCC2(O)CCN(S(=O)(=O)c3ccc(Cl)cc3)CC2)cc1
    0.6, ?, -2.5%, 10%, -4, 5%, 0
COc1ccccc1C(C(=O)NCc1ccc(F)cc1)N(C(=O)c1csnn1)C1CC1 (stereo not given)
    1.4, nt, nt, 5%, -19, -8%[15.4 µM], 27
CCCCC(CC)C(=O)Nc1ccc(S(=O)(=O)N2CCCC2)cc1 (stereo not given)
    1.0, 4%, -0.5%, 3%, 0, 24%, -18
CSc1ccc(CN(C)CC(=O)NCCc2ccccc2)cc1
    3.7, 8%, nt, 1%, -15, 6%[15.4 µM], -11
COC(=O)C1(C)NC(c2ccccc2OC)C2C(=O)N(c3ccccc3)C(=O)C21 (stereo not given)
    -4.8, 3%, -0.4%, 22%, -3, 5%, 4
Cc1cc(C)nc(SCc2nnc(SCC(=O)N3CCCc4ccccc43)n2C)n1
    -2.1, 2%, -1.9%, 5%, 3, -7%, -4
COc1ccc(N2C(=O)CC(Sc3nnc(-c4ccccc4F)n3C)C2=O)cc1 (stereo not given)
    -1.6, -6%, 5.0%, 1%, -5, ?, 1
CCOc1ccc(CN(C)C(=O)c2cccc(S(=O)(=O)N3CCCC3)c2)cc1OC
    nt, -3%, 0.6%, nt, 2, 22%, 0
Cc1ccc(N2CCCC2=O)cc1S(=O)(=O)N1CCOCC1
    nt, 10%, 0.3%, 11%, -14, -44%[inhibitor], -19
CC1(C)CC(N2CCN(c3ccccc3)CC2)=CC(=[N+]2CCCC2)C1
    4.6, -13%, -0.1%, 12%, -8, 19%, -1
O=C(Nc1ccccc1C(=O)OCC(=O)c1c[nH]c2ccccc12)c1ccco1
    17, -13%, 0.2%, -15%, 4, -1%[15.4 µM], -2
CS(=O)(=O)Cc1nc2ccccc2oc1=O
    2.2, -18%, 1.2%, ?, 2, ?, 6
COc1cc(CC(=O)OCC(=O)Nc2ccc(N(C)C)cc2)cc(OC)c1OC
    nt, -22%, 1.2%, nt, -4, -8%, nt
COc1cccc(CN2CCN(C(=O)c3ccc(-c4ccccc4)cc3)CC2)c1
    2.4, -21%, nt, -16%, -9, 0%[15.4 µM], -15
O=C1CCCN2N=C(SCC(=O)Nc3nc4ccccc4s3)SC2=N1
    3.6, -1%, 7.7%, 4%, -8, 18%, -7
O=C1C(NS(=O)(=O)c2ccc(Br)cc2)=C(N2CCCCC2)C(=O)c2ccccc21
    0.7, -16%, 13%, -6%, -8, -14%, -3
COC(=O)C1=C(C)NC(C)=C(C(=O)OC)C1C(=O)OC(C)C(=O)c1ccccc1 (stereo not given)
    0.7, 9%&-5%, -4.4%, 1%, 20&26, 21%&16%, -8&4
CCOc1cc(NC(=O)C2CC2)c(OCC)cc1NC(=O)c1cc(OC)c(OC)c(OC)c1
    4.1, -8%, nt, -3%, 12, ?, 15
CCOC(=O)Cn1cnc2sc(C(=O)OC)c(C)c2c1=O
    -0.3, -5%, -0.1%, -3%, 4, -9%, -1
Cc1cc(C(=O)NCCC2=CCCCC2)no1
    -0.5, 15%, 1.5%, 0%, -17, ?, -23
O=C(COc1ccc(S(=O)(=O)N2CCOCC2)cc1)Nc1ccccc1Cl
    1.8, 4%, nt, 10%, -3, -2%[15.4 µM], 0
CCCCn1c(C)csc1=Nc1cccnc1
    7.0, 0%, -17%, -11%, -8, 4%, -5
O=C(CCC1CCN(C(=O)c2cc(C(F)(F)F)ccc2Cl)CC1)NC1CC1
    2.6, 4%, 2.9%, 7%, -14, 1%, 12
Cc1ccc(C2C(C#N)=C(N)Oc3n[nH]c(-c4cccs4)c32)cc1 (stereo not given)
    -2.2, -1%, -0.7%, 17%, -6, 12%[15.4 µM], 29
COc1ccc2oc(=O)cc(CN3CCOCC3)c2c1
    1.6, 0%, -17%, -3%, -1, -25%, 1
CC(=O)Oc1ccc(C(=O)[C@H]2[C@H]3C(=O)N(c4ccc5ccccc5c4)C(=O)[C@H]3[C@@H]3C=CC=NN32)cc1
    7.5, -11%, -1.2%, 5%, -27, -4%[15.4 µM], 6
O=C(Nc1cc(S(=O)(=O)N2CCCCC2)ccc1N1CCOCC1)c1ccc(C(F)(F)F)cc1
    nt, -22%, -4.2%, nt, -10, 0%, -7
CSc1ccc(CNC(=O)C(C)n2nc(C)c3c(C)n(-c4ccccc4)nc3c2=O)cc1 (stereo not given)
    nt, -13%, -0.1%, 5%, -7, ?, -1
CCOc1ccc(S(=O)(=O)N2CCN(C(=O)c3oc4ccccc4c3C)CC2)cc1
    nt, -7%, -3.7%, nt, -11, -8%, nt
CCN(CC)CCCn1c2c(c(SCC(=O)Nc3cccc(C(C)=O)c3)nc1=O)CCC2
    nt, 2%, -11%, nt, -1, 8%[15.4 µM], 1
COc1ccc(NS(=O)(=O)c2cccc(N3CC(O)=C(c4ccccc4)C3=N)c2)cc1
    3.8, -10%, -0.4%, -2%, -6, -38%[inhibitor], 4
O=C(Nc1ccnn1C1CCN(Cc2cccc(O)c2)CC1)C1CCCC1
    -6.2, 0%, -0.3%, 2%, -18, 3%[15.4 µM], 1
O=C(O)c1ccc2c(c1)C(=O)N(c1ccc(/C=C/C(=O)c3ccccc3)cc1)C2=O
    8.6, -17%, nt, ?, -2, -16%[15.4 µM], 3
COc1ccc(OCCSc2ccc(S(=O)(=O)N3CCCC3)cn2)cc1
    nt, -18%, -3.0%, nt, -2, -64%[inhibitor], 10
Cc1cccc(NC(=O)CCS(=O)(=O)c2cccc3nsnc23)c1C
    2.1, -6%, -2.1%&0.5%, ?, -3, -19%, -15
COc1ccc(C2N(C(=O)c3ccccc3)CCN2C(=O)c2ccccc2)cc1
    2.6, 0%, 1.8%, 12%, -6, -6%, 7
COc1ccc([N+](=O)[O-])cc1N1C(=O)c2cccc3cccc(c23)C1=O
    -4.5, 10%, -4.1%, -3%, 9, -4%[15.4 µM], 9
CC(=O)/C(C#N)=C1\NC(=O)C(Cc2ccccc2Cl)S1 (stereo not given)
    4.3, ?, -1.0%, 14%, -7, -15%, -12
COC(=O)c1ccc2c(=O)n(CCCCCC(=O)N3CCN(c4ccc(F)cc4)CC3)c(=O)[nH]c2c1
    3.7, ?, -4.1%, 2%, -7, -10%, 10
CC(C)CC(c1nnnn1C1CCCC1)N1CCC(C(N)=O)CC1 (stereo not given)
    -5.3, 11%, nt, 18%, -8, -5%[15.4 µM], -9

Continuation.
Values run as follows: Menin-MLL FL inh, gsp antag, ClpP mod, Sfp PPTase inh, D2 PAM, gsp ag, TRPV1 potentiator
O=C(NCCCN1CCOCC1)c1cc(-c2cccc(O)c2)on1
    10, 10%, nt, 9%, -10, ?, 11
O/N=C/c1ccc(OCC(O)COc2ccc(/C=N/O)cc2)cc1
    -0.5, -6%, 0.5%, 6%, -17, 8%, 27
O=[N+]([O-])c1cccc(/C([O-])=C(/C(=S)Nc2ccccc2)[n+]2ccccc2)c1
    5.6, 3%, 0.4%, ?, 6, 7%, 18
CC(C)(C)[C@H]1C=C(C(=O)N2CCN(Cc3ccccc3)CC2)O[C@@H](OCCCCO)C1
    -14, 0%, -1.3%, -25%, -11, nt, -2
CCOc1cc(/C=N/N2C(=O)NC3(CCCCC3)C2=O)cc(Br)c1O
    0.8, -9%, -7.3%, 14%, -4, 1%, -4

Screening data (PubChem BioAssay)
